# GALR2 ag = GALR2 (human) receptor agonism; O43603; GALR2-expressing cells, agonist activation read-out; activation, %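 (tested at 5 µM)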; actives 0.48% (n = 140,000); AID 803;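 active means above mean plus 3 SD of all compounds, about 5% in these data, not always enough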;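 further: 0% = vehicle buffer wells and 100% = reference agonist at full effect; tested in CHO reporter cells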
# Target sequence (O43603 whole entry, looked up): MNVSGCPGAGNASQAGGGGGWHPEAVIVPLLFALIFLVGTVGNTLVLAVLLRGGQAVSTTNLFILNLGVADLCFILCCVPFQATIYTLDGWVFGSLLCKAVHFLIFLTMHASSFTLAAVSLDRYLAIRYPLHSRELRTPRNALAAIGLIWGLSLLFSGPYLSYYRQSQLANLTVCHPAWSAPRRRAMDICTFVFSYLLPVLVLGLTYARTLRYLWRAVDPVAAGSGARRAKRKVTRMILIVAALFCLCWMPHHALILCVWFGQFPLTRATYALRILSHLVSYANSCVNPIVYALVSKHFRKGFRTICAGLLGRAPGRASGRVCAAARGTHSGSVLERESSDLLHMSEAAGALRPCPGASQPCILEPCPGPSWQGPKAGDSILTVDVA
# Insulin prom inh = TRM-6 insulin promoter activity inhibition; TRM-6 cells (human fetal islet line), insulin promoter-eGFP reporter, imaging; reporter expression induced with tamoxifen; inhibition, % at 2 µM; actives 0.9% (n = 130,000); AID 1273;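 active means inhibition above the mean plus 3 SD, with well images judged a real hit on visual review, cut at about 60% in these data, passing the limit was not always enough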
# HSV augment = increases HSV replication in cells; maximum fold increase; HSV replication augmentation in cells, fold increase; actives 0.005% (n = 220,000);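 active means peak rise of 1.5-fold or more in the series; tested in PC3 cells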;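 further: first round at 10 µM; read as green reporter fluorescence; hits show the peak of a series up to 25 µM; 1 = signal of infected wells without compound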
# RGS16-Gao HTS = regulators of human RGS16-Galphao interaction. bead-based flow cytometry RGS16-Galphao binding, fluorescence; actives lie on both sides. binding response (% of control), % at 10 µM. actives 0.38% (n = 220,000). AID 1441;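 active means below 25% or above 175%, edge rows of some plates excepted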;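 further: Galphao activated by GDP with aluminum fluoride before binding; 100% = wells without compound and 0% = beads without RGS; some results beyond the cut were filed as inactive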
# Target sequence (O15492 whole entry, looked up): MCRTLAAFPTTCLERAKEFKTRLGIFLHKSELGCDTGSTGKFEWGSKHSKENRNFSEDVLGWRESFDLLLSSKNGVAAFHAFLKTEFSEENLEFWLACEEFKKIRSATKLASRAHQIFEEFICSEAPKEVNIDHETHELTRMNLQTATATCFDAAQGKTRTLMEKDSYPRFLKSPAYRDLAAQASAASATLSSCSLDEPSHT
# Target sequence (P09471 whole entry, looked up): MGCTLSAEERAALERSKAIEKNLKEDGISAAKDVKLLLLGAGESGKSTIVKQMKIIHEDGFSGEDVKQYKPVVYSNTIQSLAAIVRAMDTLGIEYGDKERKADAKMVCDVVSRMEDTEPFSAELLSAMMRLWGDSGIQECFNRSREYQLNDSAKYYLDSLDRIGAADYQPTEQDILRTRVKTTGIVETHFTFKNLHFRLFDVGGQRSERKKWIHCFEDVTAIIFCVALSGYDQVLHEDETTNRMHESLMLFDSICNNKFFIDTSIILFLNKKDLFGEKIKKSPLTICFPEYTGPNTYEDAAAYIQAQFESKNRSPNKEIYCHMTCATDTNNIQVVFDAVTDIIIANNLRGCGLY
# PKD1 kinase inh = inhibitors of human PKD1 kinase. PKD1 kinase fluorescence polarization assay. inhibition, %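 (about 10 µM by stock and volumes)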. actives 0.056% (n = 200,000);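 active means inhibition of 50% or more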;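 further: controls were vehicle for no effect and a reference inhibitor for full effect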
# Insulin prom inh cell count = also measured in Insulin prom inh; calls as there; normalized cell count, %; measured here: cell count, toxicity; reference of the scale not given here;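 cells exposed to compound for 48 h; stained nuclei by imaging scaled within each plate; lower means fewer cells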
# HSV augment primary fold = also measured in HSV augment; calls as there; fold increase; compound at 10 µM; measured here: primary screen fold increase 10 uM; tested in PC3 cells;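 GFP signal in the first replicate; 1 = infected wells without compound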
# An asterisk follows results filed as active; i = inactive; / = not tested or not shown; [ ] = remark or other dose.
SMILES,GALR2 ag,Insulin prom inh,Insulin prom inh cell count,HSV augment,HSV augment primary fold,RGS16-Gao HTS,PKD1 kinase inh
CCn1ncc(NC(=S)Nc2ccc3c(c2)OCO3)c1C(N)=O,/,-59,89,i,0.97,99,-2
COc1ccc(N=CC2=C(O)CCCC2=O)cc1,-1.3,/,/,i,0.99,110,-9
O=C(O)CC/C(=N\Nc1ccc([N+](=O)[O-])cc1)c1ccccc1,/,/,/,i,1.3,105,/
Cn1cc(Cl)c(-c2n[nH]c(=S)n2-c2ccccc2)n1,1.1,31,135,i,0.96,105,-2
COc1ccccc1C(=O)N1CCN(Cc2nc3cc([N+](=O)[O-])ccc3n2C)CC1,/,/,/,i,0.81,105,1
CCOC(=O)c1c(SC)nc(SC)c2c1CCC2,-2.5,12,140,i,0.97,100,1
CCN(Cc1cc(=O)n2cc(Cl)c(C)c(Cl)c2n1)Cc1nc2ccccc2c(=O)[nH]1,/,0,121,i,0.82,100,-8
Cc1ccccc1Nc1nc(N)nc(COC(=O)CC2CC3CCC2C3)n1 (configuration not stated),0.3,/,/,i,0.93,104,1
COc1ccc(OC)c(C(=O)CSc2nc3c(c(=O)n(C)c(=O)n3C)n2C(C)C)c1,0.6,-22,106,i,0.86,97,8
OCCCc1n[nH]c(=S)n1-c1ccccc1,/,7,77,i,1,111,1
CN1CCN(C(=O)Nc2ccc([N+](=O)[O-])cc2)CC1,/,/,/,i,0.99,103,/
COc1ccc(C(=O)Cc2ccc3c(c2)OCO3)c(O)c1,-0.1,-57,196,i,0.96,103,-8
COc1cccc(-n2ccnc2SCC(=O)Nc2ccccc2F)c1,/,/,/,i,1,101,-7
COCCn1nnnc1C(C(C)C)N1CCSCC1 (configuration not stated),/,/,/,i,1,106,-2
CCC(c1nnc(SCC(=O)Nc2cccnc2Cl)n1-c1ccccc1)N(C)C (configuration not stated),/,/,/,i,1,103,2
COc1ccc(N/C=C2\CCc3ccccc3C2=O)cc1,/,/,/,i,1.1,109,-7
CCOc1ccccc1-n1c(CN2CCN(C(=O)c3ccco3)CC2)nc2ccccc2c1=O,-1.6,46,110,/,/,104,4
CN(C)S(=O)(=O)c1ccc(C(=O)NCCN2C(=O)S/C(=C\c3cccnc3)C2=O)cc1,/,/,/,i,0.85,99,0
Cc1ccc2cc(C)c(Sc3nnnn3-c3ccccc3)nc2c1,0.6,21,73,i,0.9,191*[activator],-11
CC1=NN(/C(=N\c2nnc(C)s2)Nc2ccc(C)cc2)[C@H](c2ccc(C)cc2)S1,-3.0,-155,63,i,0.96,106,-4
Cc1ccc(NC(=O)Nc2cnc3ccccc3c2)cc1,/,/,/,i,0.82,103,1
COC(=O)C1(S(=O)(=O)c2cc(Br)cc3c2N(C(C)=O)CC3)CC1,-1.8,-14,139,i,1.1,104,0
Cn1c(-c2ccccc2)cnc1SCC(=O)N1CCCCC1,-0.5,7,130,i,0.91,104,-4
CN(C)CC#CCCCCCCC#CCN(C)C,-0.7,-15,111,i,1,105,5
Cc1[nH]c2ccccc2c1/C=C(\C#N)S(=O)(=O)c1ccccc1,-2.5,57,106,i,1,27,-6
CCOC(=O)/C(C#N)=C1/C=C(C)c2ccccc2N1,/,/,/,i,0.92,100,-3
CC(=O)Nc1cc(-c2ccc(Cl)cc2)nn1-c1ccccc1,-1.1,/,/,i,0.95,110,-9
Nn1c(SCc2cccc(C(F)(F)F)c2)nnc1-c1ccco1,-1.8,/,/,i,1.1,101,1
COc1ccc(CCn2nnnc2C(C(C)C)N2CCC(C(N)=O)CC2)cc1OC (configuration not stated),-0.9,29,133,i,0.7,102,5
O=C1CC(c2c(F)cccc2Cl)C(n2cncn2)C(O)=C1C1NCCc2ccccc21 (configuration not stated),/,/,/,i,1.1,103,-3
O=C(CSc1nccn1Cc1ccccc1)Nc1nccs1,-1.7,-54,118,i,0.97,103,-5
CCCc1nc(SCC(=O)N2CCC(C)CC2)c2c(=O)n(C)c(=O)n(C)c2n1,/,/,/,i,1,97,/
O=C(NC1CSCC1OC(=O)c1ccccc1)c1ccccc1 (configuration not stated),/,/,/,i,0.93,99,/
CCc1ccc(N2C(=O)CN(Cc3ccc(OC)c(OC)c3)C2=S)cc1,-0.3,21,105,i,0.95,101,-10
CSCCC(NS(=O)(=O)c1cccs1)C(=O)NCc1cccs1 (configuration not stated),-1.3,9,82,i,1,98,-8
COC(=O)c1ccccc1NC(=O)N[C@@H](C)C(=O)OC,-1.6,-315,79,i,1.1,97,-5
CCCc1c(C(=O)OCC)[nH]c2c1C(=O)CCC2,-1.3,/,/,i,0.93,96,2
S=C(NCC1CCCO1)N1CCN(Cc2ccccc2)CC1 (configuration not stated),/,/,/,i,0.87,101,0
CC(C)(C)CC(=O)OCC(=O)Nc1cc(C(C)(C)C)nn1-c1ccccc1,-0.5,-9,65,i,1.1,103,0
COCCNC(=O)CSc1nnc(-c2ccccc2)c(-c2ccccc2)n1,/,/,/,i,0.98,101,-1
CCN(CC)c1ccc(S(=O)(=O)N2CCOCC2)cc1NC(=O)CSc1cccc[n+]1[O-],-0.3,-31,89,i,1.1,32,2
CCCCc1ccc(-c2nc(N)n[nH]2)cc1,-1.5,-9,192,i,0.99,104,8
Cc1c(C(=O)NN2CCOCC2)oc2ccccc12,/,/,/,i,0.98,98,1
O=C(CSc1nnnn1C1CCCC1)c1ccc2c(c1)OCCO2,-3.9,13,132,i,1,98,3
Cc1cccc(NS(=O)(=O)c2cc(C(=O)N3CCN(C)CC3)ccc2C)c1,-2.1,69,75,i,1,100,-3
Cc1noc(C)c1-c1nnc(-c2ccc(OC(F)(F)F)cc2)o1,/,/,/,i,0.98,97,/
O=C(OCC(=O)N1c2ccccc2Sc2ccccc21)c1ccc[n+]([O-])c1,/,25,84,i,0.93,115,4
O=C(O)c1nccnc1C(=O)NCCc1c[nH]c2ccccc12,/,/,/,i,0.93,101,-5
Cc1ccc(C(=O)N/C(=C/c2cccc([N+](=O)[O-])c2)C(=O)NC(C)C)cc1,0.4,/,/,i,0.95,98,-10
CCOC(=O)c1cn(CC(=O)Nc2ccccc2C(=O)OCC)nn1,-1.4,/,/,i,0.71,92,21

# Further compounds:
SMILES,GALR2 ag,Insulin prom inh,Insulin prom inh cell count,HSV augment,HSV augment primary fold,RGS16-Gao HTS,PKD1 kinase inh
COc1ccc(S(=O)(=O)N2CCC(O)(c3ccc4c(c3)OCO4)CC2)cc1,-1.2,18,65,i,1.1,104,5
c1ccc(-c2nc(-c3cccnc3)n[nH]2)cc1,-1.8,-6,142,i,0.93,109,5
Cc1ccccc1-n1cnnc1SCC(=O)N1CCN(c2ccccc2)CC1,-2.4,-131,108,i,1.1,102,6
CC(=O)OCC(=O)[C@@]1(O)CC[C@H]2[C@@H]3CCC4=CC(=O)C=C[C@]4(C)[C@H]3[C@@H](O)C[C@@]21C,0.0,-81,96,i,0.8,105,-2
O=C(NCc1cccs1)C1CCCN(S(=O)(=O)c2cccc3cccnc23)C1 (configuration not stated),-2.3,/,/,i,1.4,71,6
Cc1ccc(NC(=O)CSc2nnc([C@@H]3CCCN3C(=O)OC(C)(C)C)o2)c(C)c1,-0.4,-7,79,i,1,101,3
Cc1ccc(N2CCN(C(=O)c3ccccc3NC(=O)C3CCCCC3C(=O)O)CC2)cc1 (configuration not stated),-0.1,-21,126,i,0.97,101,5
Cc1cccc(C(=O)N/N=C/c2ccccn2)c1,-1.8,45,58,i,0.96,120,-4
O=C(O)c1ccc(N2C(=O)c3cccc4c(C(=O)O)ccc(c34)C2=O)cc1,/,-6,83,i,1.1,105,1
Cn1nnc2cc(NC(=O)N3CC4(C)CC3CC(C)(C)C4)ccc21 (configuration not stated),-3.0,9,107,i,0.96,98,0
COc1ccc(NC(=S)Nc2ccc3nccnc3c2)cc1,-0.3,/,/,i,1.1,112,1
COc1ccc(C(=O)COc2nc(C)cc(C)c2C#N)cc1,-2.4,57,79,i,0.75,100,-12
NC(=O)C1CCN(CC(=O)Nc2cccc(C(=O)Nc3cccc(C(F)(F)F)c3)c2)CC1,-0.1,/,/,i,1,104,-12
O=S(=O)(/C=C/c1ccccc1)n1cnc2ccccc21,-1.2,3,60,i,0.98,97,2
O=C1N(CCCCN2C(=O)C3(OCCO3)c3ccccc32)c2ccccc2C12OCCO2,-3.8,-69,57,i,0.76,83,-2
O=C(O)CCN1C(=O)C2C3c4ccccc4C(c4ccccc43)C2C1=O (configuration not stated),/,/,/,i,0.91,99,/
O=C(O)c1cc(NS(=O)(=O)c2ccc(N3CCCCC3)c([N+](=O)[O-])c2)cc(C(=O)O)c1,-1.1,45,176,i,1.1,97,0
CCCc1[nH]n(-c2nc3ccccc3s2)c(=O)c1C=NCCCOC,/,/,/,i,0.93,97,/
COc1ccc(N2CCN(C(=O)c3cn(C)c(=O)c4c3c3ccccc3n4C)CC2)cc1,-1.8,35,136,i,0.79,98,-6
C=CCNS(=O)(=O)c1cc(S(=O)(=O)NCC=C)c(OC)cc1OC,/,/,/,i,1,100,3

# Retrieved by compound from above, six records:
SMILES,GALR2 ag,Insulin prom inh,Insulin prom inh cell count,HSV augment,HSV augment primary fold,RGS16-Gao HTS,PKD1 kinase inh
CCCCc1ccc(-c2nc(N)n[nH]2)cc1,-1.5,-9,192,i,0.99,104,8
O=C(NCc1cccs1)C1CCCN(S(=O)(=O)c2cccc3cccnc23)C1 (configuration not stated),-2.3,/,/,i,1.4,71,6
CCOC(=O)/C(C#N)=C1/C=C(C)c2ccccc2N1,/,/,/,i,0.92,100,-3
COc1ccc(N2CCN(C(=O)c3cn(C)c(=O)c4c3c3ccccc3n4C)CC2)cc1,-1.8,35,136,i,0.79,98,-6
S=C(NCC1CCCO1)N1CCN(Cc2ccccc2)CC1 (configuration not stated),/,/,/,i,0.87,101,0
Cc1ccc2cc(C)c(Sc3nnnn3-c3ccccc3)nc2c1,0.6,21,73,i,0.9,191*[activator],-11

# Returning to the listing with the 2 entries that preceded the break.
SMILES,GALR2 ag,Insulin prom inh,Insulin prom inh cell count,HSV augment,HSV augment primary fold,RGS16-Gao HTS,PKD1 kinase inh
COc1ccc(N2CCN(C(=O)c3cn(C)c(=O)c4c3c3ccccc3n4C)CC2)cc1,-1.8,35,136,i,0.79,98,-6
C=CCNS(=O)(=O)c1cc(S(=O)(=O)NCC=C)c(OC)cc1OC,/,/,/,i,1,100,3
O=C(N=NC(=O)c1ccc2c(O)n(C3CCCCC3)c(O)c2c1)c1cccnc1,-1.1,29,107,i,0.82,98,10
CC(=O)Nc1ccc(C(=O)OCC(=O)Nc2ccc(N3CCOCC3)cc2)cc1,/,/,/,i,1,102,-10
Cc1cc(C)c(S(=O)(=O)N2CCN(CCN3C(=O)c4cccc5cccc(c45)C3=O)CC2)cc1[N+](=O)[O-],-1.6,44,98,i,1,29,-11
CCOC(=O)CSc1nc2ccccc2c(=O)n1CC1CCCC1,-2.6,28,86,i,1.1,130,1
CC(C)NS(=O)(=O)c1ccc(OCC(=O)NCc2ccc3c(c2)OCO3)c(Cl)c1,-1.7,3,117,i,0.96,101,-6
O=C(O)CSc1nc2ccccc2[nH]1,-2.2,16,119,i,0.9,99,8
COc1cccc(-n2c(=S)sc3c(=O)n(-c4ccccc4OC)c(=S)[nH]c32)c1,/,-33,110,i,1,100,8
CC(NC(=O)C1CCC1)c1ccc(Br)cc1 (configuration not stated),-1.0,-6,147,i,1,106,-3
CCOC(=O)C1(CCc2ccccc2)CCN(C(=O)CN2C(=O)CSC2=O)CC1,/,29,114,i,1,103,-4
Cc1ccccc1Oc1nc2c(C)cccn2c(=O)c1/C=C(\C#N)C(=O)Nc1c(C)n(C)n(-c2ccccc2)c1=O,1.2,10,90,i,1.2,98,9

# Screens: PubChem, several laboratories
